KSHV LANA nucl: inhibitors of KSHV LANA binding to nucleosomes; FITC-LANA1-23 / chicken nucleosome fluorescence polarization; stronger effect = lower value; actives 0.3% (n = 51,000); z-score (concentration not given with the values); AID 720717;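 active = both repeat wells score below -2 in polarization z-score versus plate sample wells, excluding overly bright wells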;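 note: 100 nL library stock added to about 30 µL; numbers are from one replicate; some results filed as inactive read as strong as hits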
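Test system: purified chicken nucleosomes with FITC-labelled LANA N-terminal peptide (1-23); Input: 240 nM purified chicken nucleosomes (480 nM peptide binding sites), final; Medium: TEN-BT buffer, pH 7.5; Timing: 10–45 min, room temperature; Technique: fluorescence polarization, 480 nm excitation, 535 nm parallel and perpendicular emission; Replication: duplicates.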
BasE inh: blocks the Acinetobacter baumannii siderophore enzyme BasE; purified BasE, fluorescence polarization binding displacement; inhibition, % (concentration not given with the values); actives 0.1% (n = 84,000);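 active = both replicates above 25% with normal brightness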;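 note: 0% = negative plate control signal and 100% = positive plate control signal; stock transfer was 100 nL into about 30 µL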
Active calls of the source: *; nt = no result given; & = joins results of further samples. A portion of the library. The share of hits here may be higher or lower than overall.

Sequence of screens: KSHV LANA nucl | BasE inh
[1] O=C1Sc2cccc3cccc1c23
→ 1.1 | -1.6
[2] Cc1ccc(C2OCC3(CO2)COC(c2ccc(C)cc2)OC3)cc1 (configuration not stated)
→ nt | 2.1
[3] Cc1cc(C(=O)CC#N)c(C)n1Cc1ccccc1Cl
→ nt | 1.1
[4] C=CCNCC(=O)NC12CC3CC(CC(C3)C1)C2
→ nt | -0.8
[5] CCCn1c(=O)c2c(=S)nc(-c3ccccc3OC)[nH]c2n(CCC)c1=O
→ nt | 0.8
[6] O=C(NNc1ccc(S(=O)(=O)N2CCCCC2)cn1)Nc1ccc(Cl)c(Cl)c1
→ nt | -6.2
[7] CN(c1ccc(CN2C(=O)c3ccccc3C2=O)cc1)S(C)(=O)=O
→ -0.7 | 4.3
[8] Cc1sc(C(=O)O)c(-n2cccc2)c1C
→ -0.016 | 1.0
[9] CCC(=O)OCCn1c(=O)c2ccccc2c2ccccc2c1=O
→ -0.66 | -0.8
[10] O=C1CS(=O)(=O)CC(=O)N1Cc1ccc(Cl)c(Cl)c1
→ -0.82 | nt
[11] CN(C)S(=O)(=O)c1ccc(N2CCOCC2)nc1
→ -0.057 | 0.2
[12] CC1(C)CC(n2c(SCC#N)nc3c(c2=O)C2(CCCC2)Cc2ccccc2-3)CCO1 (configuration not stated)
→ 1.2 | -3.8
[13] Cc1ccc(-c2cc(C(=O)Nc3ccc(Br)cc3F)c3ccccc3n2)o1
→ 0.72 | -7.6
[14] CN(C)CCCN1c2ccccc2Sc2ccc(Cl)cc21
→ 0.038&-0.17&-0.042&0.073 | -2.8&0.0
[15] Cc1ccc(N2C(=O)c3sc4nnc(-c5ccccc5)c(=O)n4c3C2=O)cc1
→ -1.5 | 1.1
[16] Nc1cccc(CN2CCCCC2)c1
→ 0.064 | 1.8
[17] CCOC(=O)N/N=C1\CCCCC1C (configuration not stated)
→ nt | 0.3
[18] O=c1[nH]c(CNCC2CCCO2)nc2ccccc12 (configuration not stated)
→ nt | 1.1
[19] CC1CC(C)(C)CC2(C1)NC(=O)NC2=O (configuration not stated)
→ nt | 1.0
[20] Cc1ccc2c(c1)Nc1nc3nonc3nc1N2
→ -0.28 | 4.5

Other compounds.
Sequence of screens: KSHV LANA nucl | BasE inh
[21] COC(=O)c1cccc(NC(=O)NC(C)C)c1
→ nt | -0.9
[22] CCOc1nccc(C(F)(F)F)c1C(=O)N(CC)c1c(C)cccc1C
→ -0.67 | 0.5
[23] O=C(Nc1ccccc1)N1CCCN(Cc2ccc(F)cc2)CC1
→ 1.7 | -2.2
[24] Cc1nn(-c2ccccc2)c2sc(C(=O)NC(=S)NC3CCSC3=O)cc12 (configuration not stated)
→ nt | 1.1
[25] C/C(=N\NC1=NCCN1)c1ccccc1
→ -0.61 | 0.8
[26] N#Cc1cnn(-c2nc3ccccc3[nH]2)c1N
→ nt | 0.2
[27] CCN(c1ccc(OC)cc1)c1ncnc2nc[nH]c12
→ 1.5 | -1.3
[28] C=CCn1c(C)cc(C(=O)CN(CC)CC(=O)NC2CCS(=O)(=O)C2)c1C (configuration not stated)
→ nt | 2.3
[29] CN1CCN(CCN2C(=O)c3ccccc3Sc3cc(Cl)ccc3S2(=O)=O)CC1
→ nt | 0.4
[30] CCSc1nnc2nc3c4ccccc4c4ccccc4c3nn12
→ nt | 1.5
[31] NS(=O)(=O)c1ccc(NNC(=O)c2cccs2)cc1
→ -0.049 | 0.8
[32] CCN1CCOC(=O)C1CC(=O)Nc1cccc(C)c1 (configuration not stated)
→ -0.81 | -0.9
[33] COc1cc(CN2CCN(C3CCCCCC3)CC2)cc(OC)c1OC
→ 0.095 | -0.3
[34] CN(C(=O)CN1CCN(S(=O)(=O)c2ccc3c(c2)CCCC3)CC1)C1(C#N)CCCCC1
→ nt | -0.2
[35] CCOC(=O)c1nc(Nc2cccc(C)c2C)c2ccccc2n1
→ nt | 0.5
[36] Cn1c2ccccc2c2cnn(CC(=O)NCCc3ccccc3)c(=O)c21
→ -0.52 | 1.5
[37] NCCCC(N)CC(=O)NCC1NC(=O)C(CO)NC(=O)C(N)CNC(=O)C(C2CCN=C(N)N2)NC(=O)/C(=C\NC(N)=O)NC1=O (configuration not stated)
→ 0.34&0.14 | -1.9
[38] c1nc(NC2CCCCC2)c2[nH]cnc2n1
→ -0.61 | 2.2
[39] COC(=O)/C(=C/c1ccccc1)c1ccccc1
→ nt | -0.5
[40] CCn1cc(C(=O)N2CCN(c3ccc(C)cc3)C(C)C2)c2cc(OC)c(OC)cc2c1=O (configuration not stated)
→ -0.24 | 1.6

Additional compounds:
Sequence of screens: KSHV LANA nucl | BasE inh
[41] OC(Cc1ccccc1)c1ccccc1 (configuration not stated)
→ -0.1 | -1.9
[42] COc1cc2c(cc1OC)C(=O)N(Cc1ccc(F)cc1)CC2
→ -0.17 | nt
[43] O=c1nc(N(c2ccccc2)c2ccccc2)[nH]c(=O)[nH]1
→ -0.84 | 2.7
[44] CSc1sc(C#N)c(C)c1C(=O)/C=C/N(C)C
→ nt | -0.9
[45] CCOC(=O)c1cc(C)n(CC(=O)Nc2ccc(C)cc2)c1C
→ nt | 4.0
[46] O=C(Cc1ccc2c(c1)OCCO2)Nc1ccnn1C1CCCCC1
→ nt | 2.1
[47] Cc1cccc(OCc2nnc(SCc3nc4ccsc4c(=O)[nH]3)o2)c1
→ nt | -3.4
[48] COC(=O)c1cc(S(=O)(=O)NCCN(Cc2ccco2)C2CCCC2)cn1C
→ 0.019 | 0.2
[49] CCN(CC)c1ncnc2c1sc1nc(C)cc(C)c12
→ -0.023 | nt
[50] CNC(=O)NC(=O)C(Sc1nnc(-c2cc(OC)cc(OC)c2)o1)c1ccccc1 (configuration not stated)
→ nt | 0.5
[51] Cc1ccc(NC(=O)CN(C)C(=O)c2ccc(Br)o2)cc1
→ nt | -0.8
[52] O=C(CCn1c(=O)oc2cc(Br)ccc21)NCc1ccco1
→ -0.98 | 0.9
[53] CCCC(C)NS(=O)(=O)Cc1ccccc1 (configuration not stated)
→ 0.0065 | 0.1
[54] O=C1CN(c2ccccc2)C(=O)N1
→ nt | 0.3
[55] CSc1nnc(/N=C/c2c(O)ccc3ccccc23)s1
→ nt | 1.4
[56] O=C(O)CC1N=C(Nc2nc3ccccc3s2)NC1=O (configuration not stated)
→ 0.032 | 0.2
[57] CO[C@@H]1[C@@H](OC2OC(C)C(OC3CC(C)(O)C(OC(=O)CC(C)C)C(C)O3)C(N(C)C)C2O)[C@@H](CC=O)C[C@@H](C)[C@@H](O)/C=C/C=C/C[C@@H](C)OC(=O)C[C@H]1OC(C)=O (some centres not stated)
→ 0.16 | -0.1
[58] COc1ccc(C)cc1S(=O)(=O)NC1CC1
→ -0.35 | 1.5
[59] Cc1ccc(OCCCC(=O)Nc2ccc3c(c2)OCO3)cc1
→ -0.94 | 0.9
[60] CN(C(=O)COC(=O)c1cc2ccccc2cc1O)C1CCCCC1
→ nt | -0.5

Going on with the list.
Sequence of screens: KSHV LANA nucl | BasE inh
[61] c1ccc(C2C3=C(CCCC3)SC3=C2CCCC3)cc1
→ nt | 0.2
[62] CC(=O)Oc1ccc(OC(C)=O)c(S(=O)(=O)c2ccc(C)c(C)c2)c1
→ nt | -1.0
[63] Cc1ccccc1C(=O)N1CCC(C(=O)Oc2ccc3c(c2)OCO3)CC1
→ nt | 1.8
[64] CNC(=O)CNC(=O)Nc1ccc(C)cc1
→ nt | 0.2
[65] O=C(Nc1ccnn1Cc1cccs1)C(Sc1ccccc1)c1ccccc1 (configuration not stated)
→ nt | -0.2
[66] Cc1nc(C(F)(F)F)c(-c2ncn[nH]2)s1
→ -0.96 | nt
[67] CCN(CC)C(=O)CN1CCC(c2nc3ccccc3[nH]2)CC1
→ 0.7 | 0.4
[68] CCCCCCCc1nnc(NC(=O)c2cccs2)s1
→ -0.52 | 1.6
[69] CN(C)c1ccc(-c2nc3ccc4ccccc4c3c3c2CCC3)cc1
→ nt | 2.0
[70] CC1Oc2c(C(=O)O)cccc2C1C (configuration not stated)
→ nt | -0.8
[71] CC(C)C(NS(=O)(=O)c1ccccc1)C(=O)NC1CCCC1 (configuration not stated)
→ 0.24 | 1.9
[72] CC1CCN(S(=O)(=O)c2ccc3c(c2)CCN3C(=O)NCc2ccccc2)CC1
→ 0.19 | 3.9
[73] C=CCN1CCN(C(c2ccccc2Cl)c2nnnn2C2CCCCC2)CC1 (configuration not stated)
→ 0.56 | -0.1
[74] O=C(NCC(F)(F)F)c1cccnc1Nc1cccc(C(F)(F)F)c1
→ nt | 1.9
[75] COc1ccc(COCC(O)CN(C)Cc2ccc3c(c2)OCCO3)cc1 (configuration not stated)
→ nt | 0.4
[76] C#Cc1cccc(Nc2ncnc3cc(OCCOC)c(OCCOC)cc23)c1
→ 0.35 | nt
[77] CC1(C)CC(NS(=O)(=O)c2ccc(S(=O)(=O)N3CCOCC3)cc2)CCO1 (configuration not stated)
→ -0.15 | 1.9
[78] CC(OC(=O)c1ccc2ccccc2n1)C(=O)N(C)c1ccccc1 (configuration not stated)
→ nt | 0.2
[79] CCOC(=O)c1cnc(-c2cccs2)nc1Nc1ccc(C)cc1
→ nt | 0.6
[80] CC1Cc2cc(S(=O)(=O)NCCC(=O)Nc3ccc(F)cc3F)ccc2N1C(=O)C1CC1 (configuration not stated)
→ -1.3 | -0.2

Next compounds follow.
Sequence of screens: KSHV LANA nucl | BasE inh
[81] Cc1ccccc1N1C(=O)C(Cc2ccccc2)N=C1N(CCCN1CCOCC1)Cc1ccco1 (configuration not stated)
→ -0.24 | 1.1
[82] CC(C)COc1ccccc1C(=O)NC(CO)C(=O)O (configuration not stated)
→ -0.95 | -0.2
[83] S=C(SCc1ncon1)N1CCOCC1
→ 0.37 | 3.2
[84] S=c1nc2ccccc2c2nc(COc3ccccc3Br)[nH]n12
→ 2.3 | 3.0
[85] COc1ccccc1N(C)S(=O)(=O)c1ccc(C(=O)N2CC(C)OC(C)C2)cc1 (configuration not stated)
→ nt | -1.3
[86] CN(C)Cc1ccc(C(=O)O)o1
→ 0.94 | 2.2
[87] CCCCn1c(SCC(=O)c2cc(C)n(C)c2C)nc2cc(S(N)(=O)=O)ccc21
→ nt | 0.5
[88] CCNC(=S)N/N=C/c1ccc(C#N)cc1
→ nt | 2.6
[89] O=C(NCc1ccc2c(c1)OCO2)Oc1ccccc1
→ nt | 0.7
[90] CC(C)CN(CC(C)C)Cn1nc(-c2cccc(S(=O)(=O)N3CCOCC3)c2)oc1=S
→ nt | 0.7
[91] CN(C)S(=O)(=O)c1ccc(NCC(=O)Nc2ccc(SC(F)F)cc2)cc1
→ nt | 0.3
[92] CCC1COC(C)CN1 (configuration not stated)
→ nt | 3.1
[93] CCOC(=O)Cn1cnc(=O)c(C#N)c1C
→ 0.043 | 1.4
[94] CCNc1nc(NCC)nc(N(C#N)CC)n1
→ 0.33 | 0.4
[95] NC(=S)Cc1nc2n(n1)Cc1ccccc1-2
→ nt | -1.4
[96] COc1cccc(OC)c1/C(O)=C(\C#N)c1nc2ccccc2s1
→ 0.28 | -3.4
[97] COc1cccc(NC(=O)N2CCN(C/C=C/c3ccccc3)CC2)c1
→ -0.13 | -1.8
[98] O=C(CCCn1c(=O)oc2ccccc21)Oc1ccc2c(c1)OCO2
→ nt | 0.4
[99] CCOC(=O)c1cc2ccc(OC)c(OC)c2c(=O)s1
→ -0.63 | 0.4
[100] COC(=O)CSc1nc(N2CCOCC2)c2c(c1C#N)CC(C)(C)SC2
→ nt | 0.0

More compounds follow.
Sequence of screens: KSHV LANA nucl | BasE inh
[101] COc1ccc2c(CC(=O)OCC(=O)c3ccccc3)coc2c1
→ nt | 0.6
[102] CCOC(=O)c1[nH]c(C)c(C(=O)OCc2nnc(-c3ccc(Cl)cc3)o2)c1C
→ nt | 3.3
[103] COc1ccc(S(=O)(=O)NCCNc2nc3cc(C)cc(C)c3cc2C#N)cc1
→ -0.081 | 0.2
[104] CCCN(CC1CC1)C(=O)Nc1ccccc1C
→ -1.8 | -0.1
[105] CCC1CCCCN1C(=O)c1noc2c1CC(C(C)(C)C)CC2 (configuration not stated)
→ -0.056 | 1.0
[106] CCOC(=O)Nc1ccc2c(COC(=O)c3cnc(Cl)c(Cl)c3)cc(=O)oc2c1
→ nt | 0.6
[107] O=C1C2C3C=CC(C3)C2C(=O)N1Cc1ccco1 (configuration not stated)
→ nt | -0.1
[108] CCC(C)N(Cc1nc2ccccc2c(=O)[nH]1)C(=O)/C=C/c1ccco1 (configuration not stated)
→ nt | 0.5
[109] Cc1nc(C)nc(N(Cc2ccccc2)Cc2ccccc2)n1
→ 0.027 | nt
[110] O=S(=O)(c1ccc(OC(F)(F)F)cc1)N1CCN(S(=O)(=O)c2cccs2)CC1
→ nt | 1.1
[111] O=C(c1ccc(COCC(F)(F)F)cc1)N1CCCC1
→ 0.17 | 2.9
[112] CC(C)CC(=O)N/C(N)=N/c1nc2ccccc2o1
→ 0.1 | 1.2
[113] CC1CCC(NS(=O)(=O)c2cccc(C(F)(F)F)c2)CC1 (configuration not stated)
→ nt | 5.4
[114] COc1ccc(CN(C)C2CCCCC2)c(C)c1C
→ -0.3 | 0.5

Screening data deposited in PubChem by ICCB-Longwood Screening Facility, Harvard Medical School.
